Bioassay records from PubChem BioAssay.
FGF22 binding: shifts melting point of recombinant human FGF22 | Q9HCT0 | calls only at 9.99 µM | AID 651658 | hit rate 1.5% among 340,000 | recombinant FGF22 thermal shift, SYPRO orange fluorescence; percent of sucrose octasulfate shift, DMSO zero;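 active = melting point raised past a set limit in the mean and every replicate; three in four hits are not shown here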
T cruzi repl: T. cruzi replication inhibition | T. cruzi beta-gal in NIH3T3, luminescence, 90 h | hit rate 1.4% among 300,000 | inhibition, % (test concentration not listed);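 active = mean inhibition across valid replicates above about 55%, limit read from the data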;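 also: signal also drops with host cell toxicity which is not excluded here; 0% = plate median of DMSO wells and 100% = zero luminescence signal; higher percent means less beta-gal luminescence so fewer parasites; stock transfer was 50 nL into about 50 µL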
E coli growth: blocks Escherichia coli growth. OD600 absorbance (no concentration beside the values). OD600, 23 h; hits give low values. hit rate 0.21% among 330,000. AID 1053175;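 active = OD600 absorbance below the run mean of sample wells minus 3.6 SD, in any replicate, cut at about 0.56 in these data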;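 also: stock transfer was 300 nL into about 60 µL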
UCH37 inh: human UCH37 deubiquitinating enzyme inhibition; hit rate 0.33% among 330,000; purified proteasome/UCH37, Ub-AMC cleavage fluorescence; Q9Y5K5; inhibition, % (test concentration not listed);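 active = mean of two replicates above 20%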;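 also: 0% = compound-free wells with enzyme and 100% = wells lacking proteasome; stock transfer was 100 nL into about 20 µL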
Target sequence (Q9Y5K5 whole entry, looked up): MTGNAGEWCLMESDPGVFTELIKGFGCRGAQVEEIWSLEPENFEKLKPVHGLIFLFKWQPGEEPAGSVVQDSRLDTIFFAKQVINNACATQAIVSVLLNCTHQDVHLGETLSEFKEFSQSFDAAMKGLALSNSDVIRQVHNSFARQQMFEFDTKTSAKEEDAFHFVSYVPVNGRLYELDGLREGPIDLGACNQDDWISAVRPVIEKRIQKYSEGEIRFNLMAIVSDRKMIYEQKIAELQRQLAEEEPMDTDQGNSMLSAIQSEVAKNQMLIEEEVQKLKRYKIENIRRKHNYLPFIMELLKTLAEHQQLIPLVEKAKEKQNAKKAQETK
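Material: Human UCH37 enzyme supplied as purified proteasome complex | Schedule: 30 min preincubation with enzyme, 25 min cleavage at room temperature | Detection: AMC fluorescence 355/460 nm | Measure: % inhibition of Ub-AMC cleavage fluorescence | Controls: Wells without proteasome as full block, compound-free enzyme plus substrate as uninhibited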
Beta cell apopt: beta cell apoptosis inhibition; INS-1E cytokine-induced death, ATP luminescence, 48 h; percent of positive-control rescue, neutral wells zero; protection from apoptosis, % (concentration not given with the values); hit rate 0.8% among 300,000; AID 435005;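 active = all replicates at 75% or more, or half of them and the mean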;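 also: 0% = cytokine-treated negative control wells and 100% = positive control rescue; higher means more ATP so stronger rescue from cytokine killing; wells of about 40 µL received 100 nL stock; the first replicate is given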
Ecoli rRNA inh: inhibitors of bacterial rRNA selective over humanized ribosomes. E. coli WT GFP vs humanized-ribosome RFP mutants, fluorescence, 24 h; hits give low values; DMSO median 0, no signal -100. hit rate 1.6% among 350,000. GFP signal change (wild-type ribosome), % (concentration not given with the values);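 active = significant combined selectivity score with lowered wild-type GFP, culture density cut under 30%, mutant RFP and density less affected; inactive = any of these conditions unmet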; also: one replicate is shown; some compounds called inactive have numbers as strong as hits
MLL AF4-AF9 inh: MLL-AF4/AF9 protein interaction inhibition. hit rate 0.47% among 350,000. P42568. AlphaScreen, biotin-AF4 peptide binding to FLAG-AF9. inhibition, % at 10 µM;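 active = every replicate reaching a set inhibition limit, whatever the replicate mean, cut at about 25% in these data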;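 also: 0% = plate neutral control median and 100% = total signal loss; the record names both 10 and 1 µM as test concentration; the first replicate is given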
Target sequence (P42568 whole entry, looked up): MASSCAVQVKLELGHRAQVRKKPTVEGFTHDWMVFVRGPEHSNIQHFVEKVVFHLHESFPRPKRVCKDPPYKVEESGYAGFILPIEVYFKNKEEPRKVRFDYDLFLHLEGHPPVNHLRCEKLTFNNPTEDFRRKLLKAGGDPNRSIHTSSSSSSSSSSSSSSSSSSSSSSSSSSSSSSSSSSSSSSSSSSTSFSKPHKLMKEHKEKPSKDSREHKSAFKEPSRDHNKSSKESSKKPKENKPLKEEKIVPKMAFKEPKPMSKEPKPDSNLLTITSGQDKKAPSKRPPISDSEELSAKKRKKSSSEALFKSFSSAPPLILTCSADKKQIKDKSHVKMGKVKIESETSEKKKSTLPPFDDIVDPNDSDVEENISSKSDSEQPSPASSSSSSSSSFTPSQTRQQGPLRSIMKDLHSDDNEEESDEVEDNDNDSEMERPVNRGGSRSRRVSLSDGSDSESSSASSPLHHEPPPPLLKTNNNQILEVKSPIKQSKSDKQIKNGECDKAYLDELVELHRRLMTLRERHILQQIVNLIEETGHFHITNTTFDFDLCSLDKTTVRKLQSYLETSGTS
A1 inh: inhibitors of the anti-apoptotic protein A1, read as caspase activation; hit rate 0.066% among 330,000; MEF A1-2A-BIM cells, Caspase-Glo 3/7 luminescence, 3 h; percent of clofoctol response, vehicle zero; caspase activation, % (no concentration beside the values);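 active = over half of replicate activation scores above 10%, or exactly half above 10 with the replicate mean above 10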;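 also: wells of about 30 µL received 50 nL stock; many hits fall short of the cut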
Ecoli rRNA inh OD600: further read-out of Ecoli rRNA inh, marked with its call; OD600 change, %; measured here: OD600 growth;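 optical density of the mix in the first replicate; 0 = DMSO median and -100 = no signal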
Ecoli rRNA inh RFP: recorded beside Ecoli rRNA inh, whose call it bears; RFP signal change, %; measured here: RFP humanized mutant strains;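 first replicate; 0 = DMSO median and -100 = no signal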
* = called active by the depositor; i = inactive; x = no result given. Not all compounds are listed, so the mix of outcomes need not match the whole.

canonical_smiles	T cruzi repl	Ecoli rRNA inh OD600	Ecoli rRNA inh RFP	Ecoli rRNA inh	A1 inh	UCH37 inh	FGF22 binding	E coli growth	Beta cell apopt	MLL AF4-AF9 inh
Cc1cc(C)c(C(=O)O)c(CC(C)(C)C(=O)O)c1	x	9	0.2	11	0.1	4.2	i	0.63	-1	2.1
Cc1ccc(/C=C2\Sc3ccccc3C2=O)s1	29	x	x	x	-4.8	2.4	x	0.68	2	x
CC(=O)N/N=C(\C)CC(=O)Nc1cccc(C(F)(F)F)c1	-1	9	-0.9	3	0.0	x	i	x	-14	-1.5
Cc1c(-c2cccc(Cl)c2)nc2ccccc2c1C(=O)NC1CC1	x	-9	-0.5	4	-2.1	3.9	i	0.71	3	-0.3
CCOc1c(OC)ccc2c3c(c(=O)oc12)CCCC3	5	x	x	x	0.0	-44	x	0.74	6	x
COCCn1c(SCC(=O)Nc2ccc(F)cc2)nc2c([nH]c3ccccc32)c1=O	1	15	3.2	17	1.2	2.4	i	0.67	x	-1.2
COc1cccc(N2C(=O)C3C(C2=O)C3(c2ccccc2)c2ccccc2)c1 (centres undefined)	8	-20*	-8.1*	-33*	-0.3	4.2	i	0.66	-4	13
Cc1ccc(OCC(=O)NNC(=O)c2ccccc2OCc2c(C)noc2C)cc1	-6	2	0.9	-1	0.1	1.0	i	0.64	-2	-1.0
Cc1cc(C)n(CCn2nc(C)cc2C)n1	x	x	x	x	-0.3	4.3	x	0.75	-2	x
O=C(NNC1CC(c2ccccc2)=NN1C(=O)c1ccccc1)c1ccccc1 (centres undefined)	-5	0	-3.3	-6	0.4	2.9	i	0.7	-10	-9.8
N#Cc1sc2nc(C3CC3)cc(-c3ccc(Cl)cc3)c2c1N	25	x	x	x	-0.8	-72	x	0.7	4	x
Cn1c(=O)[nH]c(=O)c2c1nc(SCc1ccccc1Cl)n2CC(N)=O	-24	7	-0.5	4	-0.4	x	i	x	x	-1.3
NC(=O)c1cc2cc(Cc3ccccc3Cl)ccc2oc1=O	-2	11	0.1	10	0.2	-29	i	0.73	-10	-0.3
COC(=O)c1cnn(-c2ccc(C)c(C)c2)c1-n1cccc1	-15	x	x	x	0.3	1.0	x	0.64	3	x
CC(C)CCC(C(=O)O)C(C)CC(=O)NC1CCCCC1 (centres undefined)	-14	x	x	x	-1.1	2.2	x	0.66	1	x
CC(C(=O)Nc1ccc(F)cc1Cl)N(C)CCOc1ccccc1 (centres undefined)	15	-53	-8.3	-29	-0.7	3.5	i	0.68	-4	-2.1
O=C(Cc1ccccc1)NCc1n[nH]c(=S)n1-c1ccccc1	-2	3	-0.9	11	0.6	-0.8	i	0.69	4	-6.7
CCOCCCn1c(=NC(=O)c2ccc(OC)c(OC)c2)c(C#N)cc2c(=O)n3cccc(C)c3nc21	15	x	x	x	-1.6	-49	x	0.69	27	x
O=C(NC1CCCCCC1)C1c2ccccc2C(=O)N1Cc1ccco1 (centres undefined)	0	x	x	x	2.2	1.4	x	0.7	0	x
O=C(CN(Cc1ccco1)C(=O)Cn1nnc(-c2cccs2)n1)NCc1ccccc1	10	x	x	x	0.6	-0.8	x	0.65	2	x

Looked up above.
Reading of CCOc1c(OC)ccc2c3c(c(=O)oc12)CCCC3 under A1 inh: 0.0
Reading of COc1cccc(N2C(=O)C3C(C2=O)C3(c2ccccc2)c2ccccc2)c1 (centres undefined) under A1 inh: -0.3

Further structures follow:
canonical_smiles	T cruzi repl	Ecoli rRNA inh OD600	Ecoli rRNA inh RFP	Ecoli rRNA inh	A1 inh	UCH37 inh	FGF22 binding	E coli growth	Beta cell apopt	MLL AF4-AF9 inh
O=C(NCCC1=CCCCC1)c1ccc(-n2cncn2)cc1	x	-9	-3.4	-5	-0.7	5.8	i	0.69	1	-0.3
CC(C)C(NCC(=O)Nc1ccccc1C(=O)NC1CC1)c1ccccc1 (centres undefined)	x	-20	-8.7	-2	-1.1	3.7	i	0.66	5	-0.4
CCOc1ncccc1C(=O)Nc1ccc(F)c(Cl)c1	-1	6	-10	4	2.2	2.8	i	0.72	x	-5.9
CCN(Cc1ccccc1)C(=O)COC(=O)c1cnc(C)cn1	-25	2	-13	7	0.3	0.0	i	0.71	-5	-2.3
Cc1ccc(S(=O)(=O)N2CCCC2)cc1C(=O)Nc1ccc(-n2cnnn2)cc1	x	7	2.5	3	-1.1	0.4	i	0.69	-2	1.8
Cc1nnc2sc(SCC(=O)N3CCC(C)CC3)nn2c1=O	-7	12	0.7	8	0.1	8.4	i	0.67	5	1.7
C[C@@H]1CCC2[C@](C)(CO)[C@@H](O)CC[C@]2(C)[C@@]12CC[C@@](CO)(CC(=O)O)O2 (some centres undefined)	-7	21	3.6	11	-0.1	1.9	i	0.68	-3	2.7
COC(=O)c1ccc(CSc2nnc(Nc3ccc(OC)cc3)s2)o1	-15	x	x	x	2.4	2.5	x	0.73	-5	x
O=c1cc2ncc(-c3[nH]ncc3[N+](=O)[O-])cn2[nH]1	-8	-5	2.3	9	-0.2	6.4	i	0.65	-1	0.8
CCc1nn(CC(=O)NCCCN2CCOCC2)c(=O)c2cc3cc(F)ccc3n12	-4	4	4.4	6	0.3	-14	i	0.67	0	1.5
CC1(C)Cc2cccc(C(=O)NC3CCN(Cc4ccccc4)CC3)c2O1	26	-12	0.9	1	-1.4	3.2	i	0.65	x	-19
CCN1C(=O)[C@H]2[C@@H](c3ccc(-c4ccc5c(c4)OCO5)c(OC)c3)N[C@@](C)(C(=O)OC)[C@H]2C1=O	x	-13	0.3	-4	0.0	1.2	i	x	-10	-22
Cc1nc2sccn2c1-c1csc(NCc2ccccc2)n1	7	x	x	x	0.7	-3.4	x	0.66	52	x
CN(C1CCCCC1)S(=O)(=O)c1ccc(=S)[nH]c1	x	5	2.3	14	-0.3	5.7	i	0.68	-19	-6.2
CC(=O)N/C(=C/c1ccc(Cl)cc1)C(=O)NCCc1c[nH]c2ccccc12	0	x	x	x	0.6	x	x	0.7	6	x
CCc1nc2cc3sc(CC)nc3cc2s1	0	4	1.2	5	-5.4	-2.0	x	0.68	0	-2.4
COc1ccc(CNC(=O)C2CCN(C(=O)c3cccc(Cl)c3)CC2)cc1	-1	2	1.0	4	-0.6	3.2	i	0.68	0	-1.4
O=C(Cn1cc(C(F)(F)F)ccc1=O)N/N=C/c1ccccc1	-3	12	-2.3	13	-0.1	x	i	x	-1	-1.1
NNC(=O)CSc1ncc(-c2ccccc2)[nH]1	-10	-4	4.2	2	-0.4	1.2	i	0.67	-12	0.0
CC(C)c1ccc(C2=NN(c3ccccc3)C(=O)CC2)cc1	12	-65	4.1	-24	1.5	-1.1	i	0.66	7	-13
CC(C)(C)NC(=O)c1ccc(COCC(F)(F)F)o1	-6	1	-4.1	3	0.2	1.4	i	0.67	6	3.7
CCCn1c(C(C)Nc2nc(-c3ccc(OC)cc3)cs2)nc2ccccc21 (centres undefined)	-3	7	4.3	0	-1.0	2.7	i	0.71	-12	-7.4
CN(C)CCCNC(=S)Nc1ccc(Br)cc1	1	5	0.7	18	-0.9	1.4	i	0.63	0	-1.5
C#CCOCCOCCOCCNc1nc(N2CCN(C(=O)[C@H](CC(N)=O)n3cc([C@@H](N)CC(N)=O)nn3)CC2)nc(N2CCN(C(=O)[C@H](CC(N)=O)n3cc([C@@H](N)CC(N)=O)nn3)CC2)n1	x	8	0.1	7	-0.1	1.3	i	x	-10	x
O=C(O)CCCC(=O)Nc1cccc(-c2nc3ccccc3[nH]2)c1	-12	x	x	x	-1.7	-3.0	x	0.65	4	x
CNCC/C=C1/c2ccccc2CSc2ccccc21	-1	x	x	x	0.8	7.3	x	0.72	2	x
C#CCOCCOCCOCCNc1nc(N2CCOCC2)nc(N2CCN(C(=O)[C@H]([C@@H](C)CC)n3cc(CCCCN)nn3)CC2)n1	-12	4	3.5	1	2.9	5.8	i	x	-4	4.4
CC(C)NC(=O)COC(=O)/C=C/c1ccc(F)cc1	0	10	-0.3	4	-0.1	2.5	i	0.65	0	0.0
Cc1cc(C)n(C2CC(=O)N(c3ccc(C)c(Cl)c3)C2=O)n1 (centres undefined)	-11	x	x	x	0.3	2.2	i	0.63	1	-1.2
CC(=O)Nc1nc(N2C(=O)c3ccccc3C2=O)n(-c2ccccc2)n1	-10	x	x	x	2.1	-0.2	x	0.67	0	x
Cc1ccc(C(=O)NCCC(=O)Nc2ccccc2C)cc1	-5	19	2.1	17	-0.1	4.3	i	0.61	-1	-6.9
NS(=O)(=O)c1ccc(NC(=S)N2CCN(S(=O)(=O)c3ccc(F)cc3)CC2)cc1	-4	x	x	x	-0.3	5.5	x	0.73	-4	x
Cc1ccc(NC(=O)c2cc(-c3ccc(C)c(C)c3O)n[nH]2)cc1C	-8	-4	-0.5	-3	-1.4	-3.9	i	0.67	0	-34
N#CCC(=O)N/N=C\c1cccc(OC/C=C/c2ccccc2)c1	1	-6	5.5	-6	-1.1	x	i	x	-10	-0.8
O=C(c1ccco1)N1CCN(Cc2cc(=O)c(OCc3cccc(F)c3)co2)CC1	32	6	2.1	5	0.9	0.4	i	0.64	-2	1.5
CC1=CC(C)(C)Nc2ccc(OC(=O)CN3C(=O)CCC3=O)cc21	56*	x	x	x	0.0	-89	x	0.69	x	x
O=C(Nc1ccc(NC(=O)c2cccs2)cc1)c1ccc2c(c1)OCCO2	-1	7	2.9	13	-0.6	-9.6	i	0.64	0	-17
O=C(NCC1CCCO1)c1ccc(Br)o1 (centres undefined)	-7	2	-2.3	6	-0.2	6.3	i	0.69	-21	1.2
CCOC(=O)c1cc(-c2csc(COc3ccccc3Cl)n2)on1	-13	0	-0.2	-1	-0.1	1.0	i	0.69	-12	-0.4
CCCCOc1ccc(S(N)(=O)=O)cc1	-3	x	x	x	0.5	3.5	x	0.67	-3	x
CCN(CC)S(=O)(=O)c1ccc(C(=O)Nc2ccc3c(c2)OCCO3)cc1	-4	x	x	x	0.4	1.3	x	0.68	-6	x
CC(C)C(=O)Nc1ccc(NC(=O)CCc2ccccc2)cn1	-1	8	0.1	16	-0.3	1.9	i	0.71	-9	0.9
CCn1c(N2CCN(S(=O)(=O)c3ccc(OC)cc3)CC2)nc2ccccc21	50	-25	0.9	-27	0.8	2.2	i	0.67	27	-1.9
CC1CC(C)CN(CCCNC(=O)CCNC(=O)Cn2cnc3ccccc3c2=O)C1 (centres undefined)	-3	11	3.9	18	-0.7	1.9	i	0.69	-3	-11
COc1ccccc1CC(=O)Nc1cccc(C)n1	-5	12	0.4	5	-0.2	2.1	i	0.71	-2	-7.5
O=C1NCCCN1Cc1ccc(Cl)cc1	5	24	7.9	12	0.2	0.7	i	0.68	-7	0.9
Cc1ccccc1C(=O)Nc1ccc2c(c1)OCCO2	-2	-3	-4.0	1	-11	1.5	i	0.71	-5	0.8
